KCNQ2 enhance – enhances the rat KCNQ2 potassium channel. CHO-K1 KCNQ2, FluxOR thallium flux fluorescence; stronger effect = higher value. B-score at 10 µM. 0.54% of 310,000 active. O88943;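 active means fluorescence ratio B-score at least 3 SD of library B-scores, with initial fluorescence B-score within 3 SD, cut at about 5.3 in these data; same plate scores as AID 2156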;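 further: B-score of peak minus minimum over baseline fluorescence ratio after K+ and Tl+ stimulus; positive B-score means potentiation of KCNQ2 with more thallium influx and brighter signal; only the inactives scoring about 0 or higher are listed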
Target sequence (O88943 whole entry, looked up): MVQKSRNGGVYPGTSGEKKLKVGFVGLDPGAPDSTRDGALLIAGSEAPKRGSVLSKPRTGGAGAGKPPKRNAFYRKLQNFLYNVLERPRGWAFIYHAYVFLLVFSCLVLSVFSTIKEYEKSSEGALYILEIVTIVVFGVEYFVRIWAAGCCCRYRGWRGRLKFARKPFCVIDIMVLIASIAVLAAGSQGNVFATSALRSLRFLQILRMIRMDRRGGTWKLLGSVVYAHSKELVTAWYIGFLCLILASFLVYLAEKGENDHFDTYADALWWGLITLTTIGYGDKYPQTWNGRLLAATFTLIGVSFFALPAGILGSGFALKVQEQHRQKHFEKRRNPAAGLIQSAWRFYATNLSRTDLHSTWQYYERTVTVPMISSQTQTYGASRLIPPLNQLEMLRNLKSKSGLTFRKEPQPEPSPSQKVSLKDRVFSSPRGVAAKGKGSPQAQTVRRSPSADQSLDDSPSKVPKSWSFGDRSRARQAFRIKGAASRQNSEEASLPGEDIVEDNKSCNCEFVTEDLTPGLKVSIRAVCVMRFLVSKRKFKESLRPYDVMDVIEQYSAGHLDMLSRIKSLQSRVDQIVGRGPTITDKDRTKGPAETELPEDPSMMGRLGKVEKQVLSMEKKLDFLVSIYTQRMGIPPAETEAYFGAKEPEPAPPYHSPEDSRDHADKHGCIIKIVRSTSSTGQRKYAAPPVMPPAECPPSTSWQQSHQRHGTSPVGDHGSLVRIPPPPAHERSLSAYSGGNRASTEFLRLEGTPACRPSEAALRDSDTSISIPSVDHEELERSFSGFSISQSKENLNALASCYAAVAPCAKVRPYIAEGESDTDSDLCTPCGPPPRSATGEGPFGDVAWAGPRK
KCNQ2 enhance baseline – second read-out of KCNQ2 enhance, no call of its own (marks repeat the call); B-score; compound at 10 µM; measured here: initial fluorescence intensity artifact check;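 brightness before thallium and not channel activity; 0 = typical well and far values either way flag optical interference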
* = called active by the depositor. This is a subset; count on the stated rates, not on these rows.

SMILES	KCNQ2 enhance	KCNQ2 enhance baseline
CCCCCN(C(=O)CSc1n[nH]c(-c2ccc(C)cc2)n1)c1c(N)n(CCCC)c(=O)[nH]c1=O	0.02	0.06
COc1ccc(CN(C)C(=O)c2ccc(NS(=O)(=O)c3ccc(C)c([N+](=O)[O-])c3)cc2)c(OC)c1OC	0.48	-0.07
Cc1ccc(CN(CC(=O)N/N=C/c2ccco2)S(=O)(=O)c2ccc(C)cc2)cc1	0.24	0
COCCn1c(SCc2cccnc2)nnc1-c1c[nH]c2ccccc12	0.28	-0.72
Cc1ccc(Cn2c(NC(=O)c3ccco3)nc3ccccc32)cc1	1.3	0.22
CC1CCCN(C(=O)CSc2cnc3ccccc3n2)C1 (stereo not given)	0.58	-0.02
Cc1ccc(C)c(NC(=O)C2CC3CCC2C3)c1 (stereo not given)	21*	1.3*
Cc1nc2cc(F)ccc2n1C1CCN(S(=O)(=O)c2ccccc2)CC1	0.19	0.23
COc1cc(C(=O)OC2CCCCC2=O)cc(OC)c1C (stereo not given)	0.07	-0.9
Cc1ccc(CCNC(=O)C2CCCN2S(=O)(=O)c2ccc3c(c2)CCC(=O)N3)cc1 (stereo not given)	0.18	0.07
Cc1ccc(NC(=O)CCc2c(C)nn(-c3ccc(N4CCCCC4)nn3)c2C)cc1C	0.61	-0.73
COc1cc(/C=C2/SC(=S)N(CC(=O)Nc3nc4ccccc4s3)C2=O)cc(OC)c1OC	2.8	-1.2
O=C(NCC1CCCO1)C1CC(=O)N(C2CCCC2)C1 (stereo not given)	0.18	1.5
Cc1ccn2c(Nc3ccccc3)c(-c3ccccn3)nc2c1	1.9	-0.04
COc1ccc(-c2cc(-c3n[nH]c(=S)n3-c3cc(OC)ccc3OC)[nH]n2)cc1	0.84	-0.08
FC(F)(F)c1cc(-c2ccco2)nc2ncnn12	0.35	1.8
Cc1nn(-c2ccccc2)c(C)c1NC(=O)COC(=O)CCOc1ccccc1	0.88	-1.8
Cc1ccc(OCC(=O)OCC(=O)c2c(N)n(C)c(=O)n(C)c2=O)cc1C	0.46	-1.2
Cc1c(NC(=O)C(C)OC(=O)CCc2c[nH]c3ccccc23)c(=O)n(-c2ccccc2)n1C (stereo not given)	0.39	0.07
C=CCNC(=O)c1onc(CSc2ccc(F)c(F)c2)c1C(=O)NCC=C	0.09	-1.1
CSc1nc2ccc(NC(=O)c3ccco3)cc2s1	1.5	-0.23
Cc1ccc(C(=O)c2cn[nH]c2-c2ccccc2O)cc1	0.78	0.86
O=C(O)CCCSCC(=O)Nc1ccccc1	1.2	1.6
CN(Cc1ccccc1)C(=O)c1ccc(NC(=O)C2=CSCCO2)cc1	1.5	3.4
CCN(CC)C(=O)C1CCCN(Cc2sccc2C)C1 (stereo not given)	0.59	-0.43
O=C(CN1C(=O)c2ccccc2S1(=O)=O)c1ccc(F)cc1	1.9	1.3
NC(=S)NNC(=O)c1cc(C(F)(F)F)cc(C(F)(F)F)c1	1.3	1.9
CC(=O)CCc1c[nH]c2c(C(=O)O)cccc12	0.4	-0.46
Cc1cc2cc(C=O)c(Cl)nc2cc1C	1.6	-1.7
Cc1ccc(O)c(NC(=O)CSc2ccc(Cl)cc2)c1	0.64	0.54
CCOC(=O)N1CCC(Nc2c(NCCN3CCN(c4ccccc4F)CC3)c(=O)c2=O)CC1	0.52	0.16
Nc1ncccc1OCc1ccc(Cl)c(Cl)c1	5.4*	2.8*
COc1cc(/C=C2\C(=O)N(c3ccc(NC(C)=O)cc3)N=C2c2ccccc2)ccc1O	0.01	-1.2
CC(=O)Nc1ccc(NC(=O)C(C)OC(=O)C2CCN(S(=O)(=O)c3cccs3)CC2)cc1 (stereo not given)	0.76	2.7
CC(=O)c1ccc(C(=O)N2CCCC(N3CCN(c4ccc(F)cc4)CC3)C2)s1 (stereo not given)	0.52	1.1
COc1cccc(-c2nc(CS(=O)(=O)CC(=O)NCCCN3CCOCC3)c(C)o2)c1	0.06	-0.76
COc1ccc(OC)c(/C=N/Nc2cc(C)nc(N3CCOCC3)n2)c1	0.08	-0.3
COc1ccc(S(=O)(=O)N(C)CC(=O)NCc2cccnc2)cc1C	0.3	4.8
CC(CNc1nc2ccc(Cl)cc2n2cnnc12)c1ccccc1 (stereo not given)	1.2	1.5
CCOCCc1nnc(NC(=O)C2CC(=O)N(c3ccc(OCC)cc3)C2)s1 (stereo not given)	0.04	0.31

Entries of single compounds, quoted from the list. Screens in order: KCNQ2 enhance	KCNQ2 enhance baseline
CC(=O)Nc1ccc(NC(=O)C(C)OC(=O)C2CCN(S(=O)(=O)c3cccs3)CC2)cc1 (stereo not given) is listed with 0.76	2.7
O=C(NCC1CCCO1)C1CC(=O)N(C2CCCC2)C1 (stereo not given) is listed with 0.18	1.5
Cc1c(NC(=O)C(C)OC(=O)CCc2c[nH]c3ccccc23)c(=O)n(-c2ccccc2)n1C (stereo not given) is listed with 0.39	0.07
CN(Cc1ccccc1)C(=O)c1ccc(NC(=O)C2=CSCCO2)cc1 is listed with 1.5	3.4
CSc1nc2ccc(NC(=O)c3ccco3)cc2s1 is listed with 1.5	-0.23

The list continues:
SMILES	KCNQ2 enhance	KCNQ2 enhance baseline
Cn1c(N)c(C(=O)COC(=O)c2ccc3c(c2)C(=O)N(c2ccc(Cl)cc2)C3=O)c(=O)n(C)c1=O	0.06	-0.05
Cn1cc(Cl)c(C(=O)Nc2cccc(Cl)c2Cl)n1	0.45	-2.3
O=C(CCCN=C1NS(=O)(=O)c2ccccc21)OCC(=O)N1CCc2ccccc21	0.57	0.65
O=C(CCCl)N(Cc1nc2ccccc2c(=O)[nH]1)Cc1cccs1	0.21	0.15
Cn1c(=O)oc2cc(C(=O)c3ccccc3)ccc21	0.65	1.5
Cc1onc(-c2ccccc2)c1C(=O)N/N=C/c1ccc(Br)cc1	1.6	-0.16
Cc1ccc2c(c1)N(CC(=O)OC(CC(C)C)C(=O)NC1CCCC1)C(=O)CO2 (stereo not given)	0.29	0.32
Cc1cc(S(=O)(=O)N2CC(=O)N(CCc3ccccc3)C(=O)C2)ccc1F	2	0.07
COc1ccc(NC(=O)N2CCCC2C(=O)NCc2ccc(C)cc2)cc1 (stereo not given)	0.09	-1.4
O=C(CSc1ccc(-c2ccco2)nn1)c1cccc([N+](=O)[O-])c1	0.01	1.3
COc1ccc(-c2nnc(NC(=O)c3cccs3)s2)c(OC)c1	0.74	-3.3
COC(=O)CSc1nnc(NC(=O)CCc2ccccc2)s1	0.03	-1.8
Cc1c(C(=O)NCc2ccccn2)sc2nc(-c3ccccc3)cn12	1.3	0.49
COC(=O)c1cccc(CN2C(=O)SC(Nc3ccc(C)cc3)C2=O)c1 (stereo not given)	0.45	-1.5
CC1CCCCC1NC(=O)c1ccc(CSc2nc3ccncc3[nH]2)cc1 (stereo not given)	0.72	0.82
CCCCOC(=O)c1cccnc1	0.27	-2
Cc1cc(Br)c(NC(=O)CCNC(=O)OCc2ccccc2)cc1C	0.51	0.87
O=C(c1cccc(Br)c1)N1CCN(S(=O)(=O)N2CCCCC2)CC1	0.53	0.55
O=C(CCCCn1c(=O)[nH]c2ccccc2c1=O)N1CCN(c2cccc(C(F)(F)F)c2)CC1	0.71	-1.1
Cc1ccc(NC(=O)c2ccc(Oc3ncccn3)cc2)cc1	1.6	-1.2

Quoted at random: seven entries already listed.
SMILES	KCNQ2 enhance	KCNQ2 enhance baseline
CCCCOC(=O)c1cccnc1	0.27	-2
Cc1cc(Br)c(NC(=O)CCNC(=O)OCc2ccccc2)cc1C	0.51	0.87
O=C(CCCN=C1NS(=O)(=O)c2ccccc21)OCC(=O)N1CCc2ccccc21	0.57	0.65
Cc1cc(S(=O)(=O)N2CC(=O)N(CCc3ccccc3)C(=O)C2)ccc1F	2	0.07
Cc1onc(-c2ccccc2)c1C(=O)N/N=C/c1ccc(Br)cc1	1.6	-0.16
Cc1c(C(=O)NCc2ccccn2)sc2nc(-c3ccccc3)cn12	1.3	0.49
O=C(CCCl)N(Cc1nc2ccccc2c(=O)[nH]1)Cc1cccs1	0.21	0.15

Next structures:
SMILES	KCNQ2 enhance	KCNQ2 enhance baseline
CCc1ccc(CNC(=O)C(=O)NCC2CCCO2)cc1 (stereo not given)	0.99	0.43
COc1ccccc1OCCNC(=O)c1cc([N+](=O)[O-])cc([N+](=O)[O-])c1	0.01	1.6
O=C(NCc1ccc(Cl)cc1Cl)C1CC(=O)N(Cc2ccccc2)C1 (stereo not given)	2.2	-0.98
COc1ccc(N2CCN(C(CNC(C)=O)c3ccc4c(c3)OCO4)CC2)cc1 (stereo not given)	0.98	-0.52
Cn1c2ccccc2c2ncn(CCCN3CCOCC3)c(=O)c21	0.29	-0.05
Cc1ccccc1NC(=O)Oc1cccc(OC(=O)c2ccccc2)c1	0.4	0.66
CC(C)c1ccc(NC(=O)C(c2ccc3c(c2)OCO3)N2CCN(C(=O)c3ccco3)CC2)cc1 (stereo not given)	2.9	-0.86
O=C(O)CS(=O)(=O)c1ccc(C(F)(F)F)cn1	1.6	-1.4
COc1ccc(C(=O)N(C)C2CCCN(Cc3ccccc3F)C2)cc1OC (stereo not given)	0.14	0.65
COc1ccc(Nc2ccc(C(=O)O)cc2[N+](=O)[O-])cc1	1.2	-0.34
CC(NC(=O)C1CCN(S(=O)(=O)c2ccccc2)CC1)c1ccccc1 (stereo not given)	3.2	0.58
COc1ccc(CCN2C(=O)c3ccncc3C2=O)cc1OC	0.09	1.1
Cc1ccc(NC(=O)C2C3C=CC4(O3)C2C(=O)N(CCCN2CCCC2)C4C(=O)NC2CCCCC2)cc1Cl (stereo not given)	0.87	0.99
CCc1cccc(C)c1NC(=S)N(CCCN1CCN(C)CC1)Cc1cccs1	0.07	-1.4
CCCS(=O)(=O)N1CCN(C(=O)CCC2CCCC2)CC1	0.73	0.81
CCOc1ccc2c(c1)C(=O)c1cc(OCC(=O)O)ccc1-2	0.72	0.5
CCOC(=O)c1cnn(-c2ccccc2)c1-n1cccc1C(=O)C(=O)N(C)C	1.9	0.52
COc1ccc(-c2cn(Cc3cccc(OC)c3)nn2)cc1	0.51	1.9
CN(C(=O)c1cccc(Br)c1)C1CCS(=O)(=O)C1 (stereo not given)	0.38	0.38
CC(C)(CN=C1NS(=O)(=O)c2ccccc21)CNC(=O)c1ccccc1	1.6	-0.28
Cc1ccc(Cn2c(CN3CC(C)OC(C)C3)nc3c2c(=O)n(C)c(=O)n3C)cc1 (stereo not given)	0.06	2.3
CC1CCCCC1NC(=O)CCS(=O)(=O)c1cccc2nonc12 (stereo not given)	1.1	0.94
C1CCN(c2nc3nonc3nc2N2CCCC2)C1	0.02	0.44
COc1ccc(OC)c(S(=O)(=O)N2CCC(C(=O)NCc3ccccc3)CC2)c1	0.22	-0.62
CC1(C)C(=O)OC(c2cccn2-c2ccc([N+](=O)[O-])cc2)C(C)(C)C1=O (stereo not given)	1.1	0.16
Cc1ccccc1C(=O)N1c2ccccc2OCC1C(C)(C)C (stereo not given)	0.04	-0.28
Nc1ccc2c3c(cccc13)CC2	0.03	-0.01
O=c1cc(CCl)nc2sc3ccccc3n12	0.15	-1.2
Cc1ccc(CNC(=O)c2ccc3c(=O)n(CC4CCCO4)c(=S)[nH]c3c2)cc1 (stereo not given)	2.2	0.58
CC(C)(C)c1ccc(OCCCn2ccnc2)cc1	0.66	2
Cc1cc(=O)[nH]c(SCC(=O)N2CCN(C(c3ccccc3)c3ccccc3)CC2)n1	10*	-0.16*
COc1ccc(OC)c(S(=O)(=O)Nc2ccccc2SC)c1	0.57	-0.63
O=C(CCc1ccncc1)NC1CCCc2c1cnn2-c1ccc(F)cc1F (stereo not given)	0.53	0.39
CC(=O)O[C@@H]1[C@@]2(C)O[C@H]2CC[C@]23O[C@H]2[C@H](OC3=O)C2=C(C)C(=O)O[C@@]21O	0.35	2.2
COc1ccc(C(=O)Nc2ccccc2N2CCN(C(=O)C(C)C)CC2)cc1Cl	0.01	-1.1
CC(NC(=O)C1C(=O)N(CCO)C2(C)CC1c1ccccc1O2)c1ccccc1 (stereo not given)	0.88	-0.51
Cc1ccc(S(=O)(=O)N(C)C)cc1NC(=O)COC(=O)Cc1n[nH]c(=O)c2ccccc12	0.04	1.2
Cc1ccc(CNS(=O)(=O)CCNC(=O)c2ccccc2)cc1	0.16	0.09
O=C(COc1ccc2ccc(=O)oc2c1)Nc1ccc2c(c1)OCCO2	0.04	0.67
S=c1[nH]nc(-c2ccncc2)n1/N=C/C=C/c1ccco1	1.1	-0.72
CCOC(=O)c1cc(CC)sc1NC(=O)CN1CCN(C(=O)c2ccco2)CC1	0.73	-0.05
Cc1ccc(CN2CCN(/N=C/C(Br)=C\c3ccccc3)CC2)cc1	1.4	1.4
CC(=O)Nc1ccc(S(=O)(=O)N2CCC(NC(=O)c3ccco3)CC2)cc1	0.64	-1.4
COc1ccc(Cl)cc1C(=O)Nc1ccc2nc3n(c(=O)c2c1)CCCC3	0.14	-0.73
OC(COc1ccc(C2C=CCC2)cc1)CN1CCCCC1 (stereo not given)	2	-1.7
CCS(=O)(=O)c1ccc(O)c(NC(=O)COc2ccccc2)c1	1.5	-0.07
COc1ccc(NC(=O)N(Cc2cc3cc(OC)c(OC)cc3[nH]c2=O)CC2CCCO2)cc1 (stereo not given)	0.57	-1.1
COc1ccc(OC)c(CNC(=O)C2CCC(=O)N(CCCN3CCCC3=O)C2)c1 (stereo not given)	0.67	0.03
O=C(CCC(=O)c1ccc(Oc2ccccc2)cc1)Nc1ccc(C(=O)O)cc1	1.4	-0.5
COc1cccc(NS(=O)(=O)NC(=O)c2c[nH]c3ccccc23)c1	1.5	-0.06
CC1CCCN(CCCN2C(=O)C3C(C(=O)Nc4ccc(Cl)cc4)C4C=CC3(O4)C2C(=O)NC2CCCCC2)C1 (stereo not given)	0.54	2.1
CN1CCC(OC(=O)c2ccco2)CC1	0.08	-0.32
Cn1ncc2c(Nc3ccc(Cl)c(Cl)c3)ncnc21	1	0.24
O=C(Nc1ccc2c(c1)OCO2)c1ccc(Cl)cc1Cl	1.4	-0.02
